Ba CapD inh – Bacillus anthracis CapD inhibitors, primary screen, biochemical, fluorescence intensity; actives 0.23% (n = 140,000); AID 492967, 2010; CapD gamma-glutamyltranspeptidase (Bacillus anthracis Ames Ancestor); z-score (no concentration beside the values); purified CapD enzyme, fluorescence intensity read-out; stronger effect = lower value; some hits fall short of the stated cut;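 active = z-score under -4 in either of two replicates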;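 also: stock transfer was 100 nL into about 40 µL; score is relative to mean and spread of the plate; one replicate is shown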
AID504770 – growth inhibition of E. coli YBA685, primary screen, V. cholerae RctB inhibitors. E. coli YBA685 rctB-dependent plasmid, OD600 growth, 3 h; stronger effect = lower value. z-score (test concentration not listed). actives 0.27% (n = 130,000);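 active = z-score under -2 on both plates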;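 also: wells of about 30 µL received 100 nL stock; score is relative to mean and SD of the test wells; the first replicate is given; strong numbers were not always called active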
An asterisk follows results filed as active; i = inactive; . = not tested or not shown.

compound	AID504770	Ba CapD inh
COc1ccccc1-n1c(C)nc2cc(C(=O)O)ccc21	-1.8	0.85
CN(Cc1ccccc1)C(=O)CN1CCN(Cc2ccc(Cl)cc2)C1=O	-0.35	0.09
N#CC(/C=C/c1ccccc1)N1CCOCC1 (stereo not drawn)	-0.2	-0.41
COCCN(C(=O)c1ccccc1)C(C)c1ccc(S(C)(=O)=O)cc1 (stereo not drawn)	.	-0.78
CC1CCN(c2nnc(-c3cccs3)c3ccccc23)CC1	-0.6	1.7
Cc1nnc(NC(=O)CCc2c[nH]c3ccccc23)o1	-0.35	.
Cc1ccc(C(=O)NC(=O)c2ccccc2O)cc1	0.9	0.58
c1ccc(C2=NNC(=NCC3CCCO3)SC2)cc1 (stereo not drawn)	0.25	.
O=C(NCc1ccc(F)cc1)c1cc(-c2ccccc2)n[nH]1	-0.45	-1.5
FC(F)Oc1ccc(NC(=S)NNc2nc3ccccc3o2)cc1	-0.1	.
CCOC(=O)C(C)n1cnc2c(nnn2Cc2ccc(Cl)cc2)c1=O (stereo not drawn)	-0.2	-0.7
COc1ccc(C2(O)CN(c3cc(OC)ccc3OC)C3=[N+]2CCCS3)c(F)c1 (stereo not drawn)	.	0.4
CC(=O)N(C(C)=O)c1c(N2CCOCC2)c2ccccc2oc1=O	-0.55	-1.8
O=C(Cc1cccs1)Nc1cccc(C(=O)O)c1	-0.95	0.62
COc1ccc(CCNC(=O)CSc2nc3ccccc3c(=O)n2CCC(=O)NC2CCCCC2)cc1OC	.	-1.9
O=C(COc1ccccc1)Nc1nnc(-c2ccc(F)cc2)s1	-0.35	i
COc1ccc(C2CC(c3ccc([N+](=O)[O-])cc3)=NN2C(=O)c2ccccc2)cc1OC (stereo not drawn)	.	-0.075
CN(Cc1ccccc1)S(=O)(=O)c1ccc2[nH]c(=O)c(=O)[nH]c2c1	-1.1	46
CC1(C)Cc2c(sc3ncn4nc(-c5ccccc5O)nc4c23)C(C)(C)N1	.	0.3
COC(=O)COc1ccc(NC(=O)c2ccccc2C)cc1	1.9	0.17
COc1ccc(C2(C(=O)O)CCCC2)cc1OC	-1.1	.
CCOC(=O)C1(c2ccccc2)CCN(Cc2cccc(C(=O)O)c2)CC1	0.2	0.33
CCn1nc(C)c(CCNC(=O)NCCc2ccccc2)c1C	0.7	1.9
COc1cccc(C(=O)c2c[nH]c(C(=O)NCCCN3CCOCC3)c2)c1	.	-0.44
O=C(NCCSCc1ccco1)Nc1ccccc1	.	-0.1
O=C1C2OCC(O2)[C@@H]2[C@@H]1[C@@H]1c3ccccc3C=CN1[C@@H]2C(=O)C12CC3CC(CC(C3)C1)C2 (stereo partly drawn)	.	6.2
Cc1ccc(S(=O)(=O)Nc2nc(C)cc(NCCN)n2)cc1	.	-0.37
COc1ccc(N(CC(=O)N2CCc3ccccc32)S(=O)(=O)c2c(C)nn(C)c2C)cc1	-1.1	-0.13
O=C(Nc1ccnn1C1CCCC1)c1ccc(OC(F)F)cc1	-0.05	.
Cc1cc(C(=O)CCC(=O)N(C)Cc2c(C)nn(-c3ccccc3)c2C)c(C)s1	-0.5	.

Looked up by compound from the entries so far, seven records:
compound	AID504770	Ba CapD inh
COc1ccc(C2CC(c3ccc([N+](=O)[O-])cc3)=NN2C(=O)c2ccccc2)cc1OC (stereo not drawn)	.	-0.075
O=C(NCc1ccc(F)cc1)c1cc(-c2ccccc2)n[nH]1	-0.45	-1.5
COc1ccccc1-n1c(C)nc2cc(C(=O)O)ccc21	-1.8	0.85
COc1ccc(C2(C(=O)O)CCCC2)cc1OC	-1.1	.
CN(Cc1ccccc1)S(=O)(=O)c1ccc2[nH]c(=O)c(=O)[nH]c2c1	-1.1	46
O=C(Nc1ccnn1C1CCCC1)c1ccc(OC(F)F)cc1	-0.05	.
Cc1ccc(S(=O)(=O)Nc2nc(C)cc(NCCN)n2)cc1	.	-0.37

One compound at a time, from the list above. Values in the order: AID504770 | Ba CapD inh
FC(F)Oc1ccc(NC(=S)NNc2nc3ccccc3o2)cc1 across the screens: -0.1 | .
O=C(NCCSCc1ccco1)Nc1ccccc1 across the screens: . | -0.1

Next compounds follow:
compound	AID504770	Ba CapD inh
Cc1sc2ncn(CC(=O)OC3CCCCC3)c(=O)c2c1C	2.3	-0.48
Cc1cc(C)nc(/N=C(/NC(=O)C(C)(C)C)Nc2ccccc2)n1	0.95	-0.17
CCCC(C)C(=O)Nc1cccc(Br)c1 (stereo not drawn)	-0.1	0.32
COCCCNC1=C(C#N)C(=O)NC(c2cccs2)S1 (stereo not drawn)	-0.1	-0.045
CN(C)c1cccc(C(=O)OCC(=O)C23CC4CC(CC(C4)C2)C3)c1	0.1	.
NC(=O)c1cc(OCC(F)(F)F)ccc1OCC(F)(F)F	0.2	1.2
COc1ccc(/C=C(\C#N)c2nnc(/N=C/Nc3ccc(Cl)cc3)s2)cc1	.	-0.33
CCC(=O)N(c1nnc(SCC(=O)N2CCCc3ccccc32)s1)C1CC1	-0.3	.
Cc1ccc2cc(CCNC(=O)CCCc3ccccc3)c(=O)[nH]c2c1	-0.8	2.3
Cc1c(F)cccc1/C=N/NC(=O)c1ccccc1Oc1ccccc1	.	0
CC(C)[C@H](NC(=O)c1ccccc1)C(=O)Nc1ccc(N2CCOCC2)cc1	-0.05	.
CC1(C)CC(NCc2ccncc2)CC(C)(C)N1	-0.8	-0.21
COc1ccc(C(=O)N=c2sc3ccccc3n2C)cc1OC	-0.35	43
Cc1c(C(=O)NC(C)c2ccccc2)sc2ncnc(N3CCN(c4ccccn4)CC3)c12 (stereo not drawn)	.	-1.1
Cc1c(-c2ccc(Cl)cc2)nc(N)c(C#N)c1-c1ccccc1Cl	.	27
CCCCNc1nc(SCC(=O)NCCCOC)nc2ccccc12	.	0.9
CCCCc1ccc(NS(=O)(=O)c2ccc(OC)c(OC)c2)cc1	.	-0.89
O=C(CSc1nc2ccccc2o1)c1ccc(Cl)cc1	0.45	0.26
Cc1ccc(C(=O)c2ccc(C)cc2)cc1	-0.85	-1.2
COc1cc(C2Nc3ccccc3NC3=C2C(=O)CC(c2cccs2)C3)cc(OC)c1OC (stereo not drawn)	.	-0.89
CCC(C)N1C(=O)C2C(C(=O)Nc3cccc(Cl)c3)C3C=CC2(O3)C1C(=O)NC1CCCCC1 (stereo not drawn)	.	0.24
CN1CCN(C(=O)c2ccc(COc3cc(Cl)ccc3Cl)o2)CC1	-0.15	-0.01
CC1=NN(c2ccc(Cl)c(C(=O)O)c2)C(=O)/C1=C\c1ccc(-c2cccc([N+](=O)[O-])c2)o1	.	-0.66
N#CCCN(Cc1cccs1)S(=O)(=O)c1ccc2c(c1)CCO2	-1.1	-0.005
Cc1ccc2[nH]c3c(=O)n(CCN4CCCCC4C)cnc3c2c1 (stereo not drawn)	0.65	-1
N#CC1=C2CCCCC2C(c2cccc(Br)c2)C(C#N)(C#N)C1=O (stereo not drawn)	-0.35	0.8
O=c1oc(-c2ccccc2Cl)nc2sc3c(c12)CCC3	.	-0.16
COc1ccc(C2CC(C(F)(F)F)n3nc(C(=O)NCc4cccs4)c(Cl)c3N2)cc1OC (stereo not drawn)	.	0.16
Cc1cc2c(cc1C)CSC(c1c(O)ccc3ccccc13)SC2	.	0.15
N=Nc1c(O)n(Cc2ccccc2)c2ccccc12	0.2	.
O=C(CSc1nc2ccccc2c(=O)[nH]1)N1CCOCC1	0.5	0.27
Cc1ccc(CNC(=O)C2CSC3(C)CCC(=O)N23)cc1 (stereo not drawn)	1.2	.
O=C(CSc1nc2ccccc2o1)NCC1CCCO1 (stereo not drawn)	-1	-0.27
CC1=C(C(=O)Nc2ccccc2F)C(c2ccc3c(c2)OCO3)C2=C(CC(c3ccccc3)CC2=O)N1 (stereo not drawn)	.	47
O=[N+]([O-])c1ccc(Oc2c(Cl)cccc2Cl)cc1	.	-0.18
CCC1=NN(C(=O)COc2ccc(Cl)c(C)c2)C(O)(C(F)(F)F)C1 (stereo not drawn)	0.3	79
O/N=C1/CCCc2occc21	-0.95	-0.35
Cn1ccnc1SCc1nc2ccccc2c(=O)[nH]1	-2.5	.
CCSc1nc2ccccc2c(=O)n1C	-1	-0.065
Cc1cc(O)cc2c1C(=O)CC(C)(C)O2	.	1.9
NC(=O)COc1ccc(S(=O)(=O)N2CCc3ccccc32)cc1	0	.
CC(C)CCN(C(=O)Cn1c(=O)oc2ccccc21)c1c(N)n(Cc2ccccc2)c(=O)[nH]c1=O	0	.
c1ccc(Nc2c(-c3ccc(N4CCOCC4)cc3)nc3ccccn23)cc1	-1.3	0.67
COc1ccc(NC(=O)c2sc3nc4c(cc3c2N)C(=O)CC(C)(C)C4)cc1	.	-1.1
CC(Oc1ccccc1)C(=O)Nc1ccccc1C(=O)N1CCOCC1 (stereo not drawn)	-0.8	0.12
Oc1[nH]c2ccccc2c1C=Nc1ccc2cn[nH]c2c1	1.4	-0.89
CC1(C)C(c2ccccc2)=[N+]([O-])C(C(=O)O)N1O (stereo not drawn)	-0.05	0.41
Cn1c2ccccc2c2cc(C(=O)NNC(=O)c3c(F)cccc3F)sc21	.	27
COc1cccc(C(=O)c2c[nH]c(C(=O)NCc3cccs3)c2)c1	-1.2	-0.2
O=c1cc(Nc2ccc(F)cc2)c2ccccc2o1	0.3	0.15
CS(=O)(=O)c1ccc(N2CCC(C(=O)O)CC2)c(-n2cccc2)c1	.	-0.64
Cc1nnsc1C(=O)NC(=O)Nc1ccc(F)c(Cl)c1	-0.75	0.11
CCOC(=O)N1CCN(C(=O)c2ccc3c(=O)n(-c4ccccc4)c(SCC(=O)C(C)(C)C)nc3c2)CC1	.	0.87
COC(=O)C1=C(C)Nc2nc(SC)[nH]c(=O)c2C1c1cccc([N+](=O)[O-])c1 (stereo not drawn)	.	-0.31
CCOC(=O)CSc1nnc(-c2ccccc2)c(=O)n1-c1ccccc1	0.6	-0.56
Cc1cc(C)c(C2N(c3ccccc3)CCN2c2ccccc2)c(C)c1	.	-0.31
COc1ccc(NC(=O)c2cc3nc(-c4ccc(OC)c(OC)c4)cc(C(F)(F)F)n3n2)cn1	.	-0.55
O=C(O)/C=C\C(=O)N1CCC2(CC1)C(=O)NCN2c1ccccc1	.	0.085
O=S(=O)(CCSCc1csc2ccccc12)c1ccc(Cl)cc1Cl	0.75	-1.2
O=c1c2ccccc2nc(SCc2cccc(F)c2)n1C1CC1	0.15	0.4

(next part)
compound	AID504770	Ba CapD inh
Cn1c(CNc2nc(-c3ccccc3)cs2)nnc1SCC(=O)OC1CCCCC1	-0.45	.
COc1cccc(CC(=O)NC2CCN(c3ncc(C(F)(F)F)cc3Cl)CC2)c1	0.45	-0.26
COc1cc(/C=C2\SC(=S)N(CC(=O)Nc3ccccc3[N+](=O)[O-])C2=O)cc(OC)c1OC	.	-0.29
CC(Cc1c[nH]c2ccccc12)N1C(=O)CCC1=O (stereo not drawn)	1.6	0.075
COc1ccccc1-n1c(CNC(=O)c2cccc([N+](=O)[O-])c2C)nnc1SCC(=O)N1CCc2ccccc21	.	-0.26
NC(=O)C1CCN(C(=O)c2cccs2)CC1	-0.4	-0.26
CCOC(=O)c1sc2cc(OC)ccc2c1Cl	1.3	2
CCOC(=O)C(Sc1nc2c(c(=O)[nH]1)CCCC2)c1ccccc1 (stereo not drawn)	-0.35	.
Cc1onc(-c2ccccc2Cl)c1C(=O)N1CCCN2C(=O)c3ccccc3C21 (stereo not drawn)	.	-0.55
CCN1C(=O)N(c2ccc(C)c(Cl)c2)S(=O)(=O)c2ccccc21	0.1	0.28
NC(=O)COC(=O)C1c2ccccc2Oc2ccccc21	-2	1.4
C=CCNc1nc(Cl)nc(Cl)n1	-0.25	.
CCN(CC)C(=O)Oc1cc(=O)n2c3c(cccc13)CCC2	-1	14
O=C(NC1(C(F)(F)F)N=C2SCCN2C1=O)c1ccccc1 (stereo not drawn)	0.95	-0.26
COC(=O)c1ccc2c(c1)N(C)S(=O)(=O)CC2=O	.	0.62
CC(=O)Nc1cccc(-n2nnc(SCc3ccccc3)n2)c1	-0.85	0.49
Cc1ccc(C(=O)COC(=O)/C=C/c2nc3ccccc3o2)c(C)c1	-0.2	.
Cc1noc(C)c1COC(=O)/C(C#N)=C/c1cc(C)n(-c2ccc(Cl)c(C(F)(F)F)c2)c1C	0.25	.
CCCCNc1ccccc1C(=O)OCc1nc2ccccc2c(=O)n1CC#N	-0.35	.
Cc1nn(CCC(=O)Oc2ccc(Cl)cc2)c(C)c1Cl	-0.95	.
CCSc1sc(CN(C)C)cc1/C=N/O	-0.85	-0.11
CCc1ccc(CNC(=O)C2CCC(=O)N2C2CCCCC2)cc1 (stereo not drawn)	0.35	0.97
COC(=O)C1=C(C)NC2=C(C(=O)c3ccccc32)C1c1cc2c(cc1Cl)OCO2 (stereo not drawn)	0.25	.
CCC(C)c1ccccc1NC(=O)COC(=O)Cc1ccsc1 (stereo not drawn)	-1.1	-0.08
CNC(=O)COC(=O)c1cc(C)n(-c2ccc(F)cc2)c1C	-1.8	.
Cc1cc(Nc2ccc(F)c(Cl)c2)nc(NC(=O)C(C)(C)C)n1	-0.3	-0.51
CCc1nc2ccccc2c2c1C(=O)N(CCc1cnc[nH]1)C2=O	.	0.8
CN1CCN(c2ncnc3sc(-c4ccccc4)cc23)CC1	-0.35	21

Screening results (PubChem)

An excerpt; count on the stated rates, not on these rows.
